Screens as filed in PubChem BioAssay.
ClpP mod – qHTS Assay for Activators of ClpP; ATP-dependent Clp protease proteolytic subunit (Bacillus subtilis (strain 168)), P80244; purified B. subtilis ClpP, FRET peptide cleavage, 20 min; Potency, µM (titrated, usually from 57.5 µM), inactives show at the top dose activity change, negative = active; hit rate 1.9% among 340,000; AID 651965, 2013; active = well fitted falling curve with a large enough effect; inconclusive = small, poorly fitted or top-dose-only effect; inactive = no such curve, though single readings can be large or run the other way; further: potency means the concentration at half of the fitted maximal effect; the source files actives as falling curves though it sought activators and does not explain the sign; nearly all actives have a fitted effect of over 65% in size; many hits overshoot -100%
Target sequence (P80244 whole entry, looked up): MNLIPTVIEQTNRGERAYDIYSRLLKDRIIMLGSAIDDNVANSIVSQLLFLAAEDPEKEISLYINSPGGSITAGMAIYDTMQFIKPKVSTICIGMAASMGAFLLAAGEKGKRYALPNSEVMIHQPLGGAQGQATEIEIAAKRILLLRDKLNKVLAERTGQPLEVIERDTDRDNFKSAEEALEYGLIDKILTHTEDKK
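Purified B. subtilis ClpP, 10 microg/mL final in Tris/HCl pH8 with KCl, BSA, glycerol and Tween-20, cleaved an Abz/nitrotyrosine-quenched decapeptide. Fluorescence (ex 320, em 430) was read at 0 and 20 min at room temperature. Delta was normalized to 5.8 microM ADEP and DMSO/no-enzyme controls.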
PINK1 expr mod – PINK1 expression modulation | PINK1 immunofluorescence, high-content cytometry, 24 h | Potency, µM (series often up to 76.6 µM), without a hit: at the top dose activation (PINK1 increase), most hits filed as activators | hit rate 0.2% among 410,000 | AID 624263; active = well fitted activation curve with a large enough effect; inconclusive = small, poorly fitted or top-dose-only effect; inactive = flat fitted curve, though single readings scatter; cell line not stated here;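 further: potency means the concentration at half of the fitted maximal effect; % of control where 0% means no effect; nearly all actives have a fitted effect of over 65% in size; a mitochondrial uncoupler was the plate control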
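PINK1 protein level read as immunofluorescence by microplate cytometer in a fixed, stained stable cell line after 24 h exposure to five compound concentrations, with CCCP as control.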
Menin MLL FP FL – displaces fluorescein MLL peptide from human menin. FP activity change, % at 61.4 µM. AID 1766. 290,000 tested, under 10 active. Fluorescence polarization, fluorescein-MLL peptide displacement from menin; inconclusive = falling polarisation curve, or a change in total fluorescence; inactive = total fluorescence flat and polarisation flat or rising; no compound was filed as active; the % refers to the polarisation; negative = inhibition;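 further: % of control where 0% means no effect; inhibitors lower the polarisation; unlabelled MLL peptide was the positive control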
D2 agonist – activates the human D2 dopamine receptor; P14416; DiscoveRx PathHunter D2 beta-arrestin, luminescence, 90 min; 100% = 57 uM dopamine signal; activation, % (concentration not given with the values); hit rate 0.084% among 360,000; in the data active = activation above about 40%; inconclusive = about 15% to 40%; inactive = below about 15%; further: compound concentration not given in the record; the text of the record calls up to 30% inactive
Target sequence (P14416 whole entry, looked up): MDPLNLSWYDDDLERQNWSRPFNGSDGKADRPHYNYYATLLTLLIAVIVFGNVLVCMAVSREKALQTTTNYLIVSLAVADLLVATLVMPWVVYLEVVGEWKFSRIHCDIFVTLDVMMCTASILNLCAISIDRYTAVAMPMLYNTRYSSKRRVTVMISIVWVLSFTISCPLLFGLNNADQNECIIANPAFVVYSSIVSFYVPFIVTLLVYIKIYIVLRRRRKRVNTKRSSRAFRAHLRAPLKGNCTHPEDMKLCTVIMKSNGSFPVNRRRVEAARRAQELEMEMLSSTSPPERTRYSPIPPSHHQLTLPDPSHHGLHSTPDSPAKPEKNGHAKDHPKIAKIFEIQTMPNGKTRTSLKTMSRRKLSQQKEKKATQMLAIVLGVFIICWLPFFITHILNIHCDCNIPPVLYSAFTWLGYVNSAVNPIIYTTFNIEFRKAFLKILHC
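DiscoveRx PathHunter D2 beta-arrestin cells (2,100/well) attached overnight, then compound-stimulated 90 min at 37 C in HBSS/10 mM HEPES/0.1% Tween-20 buffer; beta-galactosidase complementation read by luminescence after 1 h at ambient temperature. Dopamine 57 uM final (EC100) as control.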
Sfp inh – blocks B. subtilis Sfp PPTase activity | Biochemical Sfp PPTase activity, qHTS | Potency, µM, for the others: max response, negative = inhibition, actives largely listed as inhibitors | hit rate 3.5% among 310,000; active means well fitted inhibition curve with a large enough effect; inconclusive means small, poorly fitted or top-dose-only effect, or another doubt; inactive means no such curve, though single readings can be large or run the other way;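 further: the enzyme is Sfp with the accession as filed and its product quenches rhodamine fluorescence; potency means the concentration at half of the fitted maximal effect; 0% = enzyme reaction without inhibitor and -100% = no enzyme wells; top concentration of the series not given in the record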
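Fluorescence-quenching assay: 15 nM Sfp-PPTase preincubated 15 min at room temperature with compound, then 5 uM rhodamine-CoA and 12.5 uM BHQ-2-labelled YbbR peptide added. Fluorescence (ex 525/em 598 nm) read at start and after 30 min; difference gives rate.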
gsp agonist – gsp mutant agonism. gsp mutant cells, cAMP HTRF, 30 min; control for the full effect not named in the record. Potency, µM (series often up to 76.9 µM), inactives show top-dose activation (cAMP increase), most hits filed as activators. hit rate 0.13% among 340,000. AID 624287; active = well fitted activation curve with a large enough effect; inconclusive = small, poorly fitted or top-dose-only effect, or another doubt; inactive = no such curve, though single readings can be large or run the other way; cell line not stated here;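 further: phosphodiesterase inhibitor Ro 20-1724 added with compounds to block cAMP breakdown; potency means the concentration at half of the fitted maximal effect; nearly all actives have a fitted effect of over 60% in size; about a fifth of the inactives were tested at one dose only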
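Cells in DMEM/10% FBS with G418 were pretreated with compounds in DMSO plus […] (300 uM stock) for 30 min at 37C. cAMP was measured by HTRF (cAMP-d2 plus anti-cAMP antibody-K) after 30 min at room temperature.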
gsp antag – gsp mutant antagonism; gsp-mutant cells, cAMP HTRF, 30 min; control for the full effect not named in the record; hit rate 0.4% among 340,000; Potency, µM (top dose mostly 76.9 µM), for inactives: top-dose activity change, negative = inhibition, hits mostly inhibitors; active = falling curve of any shape with a large fitted effect; inconclusive = falling curve, mostly with a smaller effect; inactive = flat or rising curve; cell line not stated here;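 further: intracellular cAMP measured with PDE inhibitor Ro 20-1724 present during compound exposure; potency means the concentration at half of the fitted maximal effect; on the % scale 0 is the no-effect control and ±100 the full control effect; nearly all actives have a fitted effect of over 65% in size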
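G418-selected cells were plated in DMEM/10% FBS for 16-24 h at 37C, then treated with compounds plus the PDE inhibitor […] (300 uM solution added) for 30 min at 37C. Intracellular cAMP was measured by HTRF after 30 min lysis at room temperature.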
The depositor's hits bear a star; u = inconclusive; x = not tested or not shown; & = joins results of further samples; [ ] = another dose, or the depositor's remark. Random draw from the library; 5.1% or so of the library scored in one or more.

| Compound | ClpP mod | PINK1 expr mod | Menin MLL FP FL | D2 agonist | Sfp inh | gsp agonist | gsp antag |
| --- | --- | --- | --- | --- | --- | --- | --- |
| O=C(COC(=O)c1ccc(F)c(S(=O)(=O)N2CCOCC2)c1)NC1CCCCC1 | -0.5% | -0.5% | x | -3.1 | x | -34%[inhibitor] | -5% |
| COc1cc2nc(C3CCC3)n(NC(=O)COc3ccccc3)c(=O)c2cc1OC | 0.1% | 5.5%[38.3 µM] | 0.0 | -2.1 | 7% | -11% | 8% |
| O=C(c1ccco1)N1CCN(C(=O)c2ccc(-c3ccc([N+](=O)[O-])cc3)o2)CC1 | 0.6% | 0.3% | x | 2.9 | x | 20% | -10% |
| O=C1C2CCCCC2C(=O)N1c1nccs1 (configuration not stated) | x | 1.1% | 2.0 | 1.2 | 23% | -23% | 1% |
| Cc1ccc(Nc2cc(=O)n(C3CCCCC3)c(=O)[nH]2)cc1C | -3.0% | u | 5.3 | -2.7 | 14% | -62%[inhibitor] | -7% |
| CCNC(=S)N/N=C/c1cccs1 | 0.5% | -0.9% | 5.5 | -5.2 | 9% | 17% | -4% |
| O=c1cnnc(N/N=C/c2c[nH]c3ccccc23)[nH]1 | x | -0.1% | -0.1 | 2.7 | u | u | -10% |
| CN(CC(=O)Nc1ccc(OC(F)(F)F)cc1)C(=O)/C=C/c1ccco1 | -0.3% | 6.8% | x | 1.0 | x | -21% | -13% |
| Cc1nonc1NC(=O)OC1CCCCC1 | -0.9% | 5.1%[38.3 µM] | -1.5 | -2.3 | 11% | 11% | -2% |
| OCCNc1cnc2ccccc2n1 | x | -0.3% | -1.4 | 2.2 | 15% | 0%[15.4 µM] | 8% |
| O=C(CC1OC(=O)c2ccccc21)c1ccco1 (configuration not stated) | 3.2% | -2.6% | 4.5 | -2.8 | -4% | u | 9% |
| O=C(Nc1nnc(C2CCCCC2)s1)c1ccco1 | 2.4% | 2.2% | 0.7 | -0.1 | -6% | -43%[inhibitor] | -3% |
| O=c1oc2cc(O)ccc2c2c1CCCC2 | 22% | 0.9% | 1.6 | -2.8 | 0% | -20% | 9% |
| COC(=O)C(C)Oc1cc(C)ccc1COc1ccc(-n2nc(C)n(C(F)F)c2=O)cc1 (configuration not stated) | x | -0.6% | x | 2.6 | x | -9% | -12% |
| COc1ccc(OC)c(C2=NOC(C(=O)Nc3c(C)n(C)n(-c4ccccc4)c3=O)C2)c1 (configuration not stated) | -26% | -0.4% | 4.3 | -4.1 | 10% | u | 6% |
| COc1ccc(-c2coc3cc(O)ccc3c2=O)cc1 | 4.4% | 0.5% | u | -4.5 | 6%&-1% | x | -10% |
| COc1ccc(-n2c(CNC(=O)c3cc(OC)c(OC)c(OC)c3)n[nH]c2=S)cc1 | -1.5% | -1.5%[38.3 µM] | 0.7 | 2.3 | -13% | 21% | 11% |
| CCCCn1c(N)c(N(CCOC)C(=O)c2cc3ccccc3cc2OC)c(=O)[nH]c1=O | -0.7% | -0.5% | x | -2.9 | x | -11% | 10% |
| CCOC(=O)N1CCc2c(sc3[nH]c(=S)[nH]c(=S)c23)C1 | x | 1.2% | 1.7 | -1.3 | 7% | 15%[15.4 µM] | 4% |
| O=C(CCCN1C(=O)NC2(CCCC2)C1=O)N1CCN(S(=O)(=O)c2ccccc2)CC1 | -2.7% | 1.7% | x | 0.1 | x | -3% | -8% |
| CCn1c(Cc2ccccc2)nnc1SCC(=O)Nc1ccccc1 | -3.3% | -3.5%[38.3 µM] | 0.1 | -2.7 | -13% | -54%[inhibitor] | -6% |
| Cc1ccccc1OCc1nnc2n1CC(C)S2 (configuration not stated) | 0.7% | -2.2% | 8.3 | -0.3 | 10% | -8% | 3% |
| CCOC(=O)COc1c(OC)cc(Cl)cc1C1Nc2ccccc2C(=O)N1c1ccc(F)cc1 (configuration not stated) | 32µM* | 7.2%[38.3 µM] | 3.6 | -4.3 | 3% | -30% | -19% |
| COc1ccc(/C=N/O)cc1COc1ccc(NC(C)=O)cc1 | 3.2% | -0.3%[38.3 µM] | 1.9 | -0.7 | 10% | u | 0% |
| Cc1[nH]c2ccccc2c1SCC(=O)N1CCC(C)CC1 | -0.2% | 1.3% | -1.9 | -4.0 | 9% | -19% | -7% |
| C/C(CCc1ccco1)=N\NC(=O)CNc1c(Br)cc(Br)cc1Br | 0.1% | 0.4% | -1.3 | 4.1 | 13% | 2% | 7% |
| C[n+]1ccccc1/C=C/c1ccc([N+](=O)[O-])cc1 | 0.8% | 11% | -4.3 | 7.6 | 11% | 18% | 7% |
| Cc1ccn2c(=O)nc(SCC(=O)NCc3ccccc3)nc2c1 | -13% | 3.0% | x | -3.1 | x | 30% | 3% |
| Cc1ccc(NC(=O)c2cccc(NC3=NC4CS(=O)(=O)CC4S3)c2)cc1C (configuration not stated) | 0.2% | -1.1% | -0.4 | -2.0 | 10% | -25% | -5% |
| CCc1ccc(CNCc2ccc(OCC(O)CN(C)Cc3ccccc3)cc2)nc1 (configuration not stated) | -5.1% | 1.0% | -2.7 | -6.2 | 10% | 26% | 12% |
| O=C1c2ccccc2C(=O)N1CCCc1nc2ccccc2c(=O)n1CCCn1ccnc1 | -4.5% | 0.8% | -0.7 | 0.3 | 7% | u | 4% |
| O=C(c1cc(COc2c(F)cccc2F)on1)N1CCC(c2ccncc2)CC1 | -1.2% | 0.0% | -18 | -0.2 | u | 8%[15.4 µM] | -24% |
| C=CCN1C(=O)/C(=c2\sc3nc(=O)c(Cc4ccc(OC)c(OC)c4)nn3c2=O)c2ccccc21 | x | -1.1% | 2.8 | 2.9 | 16µM* | -42%[inhibitor] | -4% |
| Cc1cccc(NS(=O)(=O)c2ccc3c(c2)CCC(=O)N3)c1 | x | 5.3%&0.5% | -3.9 | -1.7 | -3% | 1%[15.4 µM] | -2% |
| O=C(NC1CCN(C(=O)Nc2cccc(Cl)c2)CC1)c1ccco1 | x | 7.7% | -0.8 | -4.8 | 23% | 17%[15.4 µM] | 4% |
| CCOc1ccc2nc(COC(=O)c3cccs3)c(C(=O)c3ccccc3)[n+]([O-])c2c1 | -1.5% | -2.1% | -0.6 | -0.3 | 11% | 8% | 6% |
| COc1ccc(NC(=O)CS(=O)(=O)c2cn(CC(=O)N3CCCC3)c3ccccc23)c(OC)c1 | 1.1% | 2.8% | x | 3.0 | 10% | -9%[15.4 µM] | -18% |
| CCCN(Cc1nnc(-c2cccs2)o1)C(=O)CN1C(=O)NC2(CCCCC2)C1=O | -7.0% | -1.1% | x | -1.7 | x | -28% | 9% |
| Cc1ccc(NC(=S)N(CCN(C)C)Cc2cccs2)cc1C | 0.9% | 1.0% | 0.9 | -1.7 | 12% | 0%[15.4 µM] | 7% |
| CC1CCN(c2c(NCC3CCC(C(=O)NCCC4=CCCCC4)CC3)c(=O)c2=O)CC1 (configuration not stated) | x | 3.7% | 0.4 | -2.3 | 4% | -6%[15.4 µM] | -18% |
| COc1ccc(C(=O)C2CCCN(C(=O)COc3ccc(C(C)=O)cc3)C2)cc1F (configuration not stated) | u | -0.8% | -0.9 | 6.7 | 13% | -17%[15.4 µM] | -8% |
| Clc1ccc2nc(-c3ccccc3)cn2c1 | 1.3% | 0.7% | 1.3 | u | 21% | -18% | 11% |
| O=C1CCN(CCc2ccccc2)CCN1CCSc1ccc(Br)cc1 | 2.8% | 5.9% | 1.4&1.5 | 0.2 | -21%&-8% | x | -8% |
| O=C(Nc1ccccc1)Nc1nc(-c2ccc(F)cc2)cs1 | 2.3% | 5.8% | 6.5 | 14 | -10% | 23% | -6% |
| Cc1ccc(F)cc1NC(=O)CN1CCN(c2ccccn2)CC1 | 0.9% | -0.2% | 2.5 | u | 26% | 20%[15.4 µM] | -10% |
| CCOC(=O)N1CCN(C(=O)CN(c2ccc3c(c2)OCO3)S(C)(=O)=O)CC1 | -2.2% | 1.2%[38.3 µM] | 0.9 | -1.9 | -1% | 1% | 3% |
| O=C(Nc1ccn(CCOC(=O)c2ccccc2)c(=O)n1)c1ccccc1 | -0.7% | 0.0% | x | -5.9 | x | x | x |
| CCN(CCCNC(=O)CCn1c(=S)[nH]c2cc3c(cc2c1=O)OCO3)c1cccc(C)c1 | -3.1% | 25% | x | -1.1 | 11% | 29% | 3% |
| CCCC(=O)Nc1nc2c(C)c(Cl)ccc2s1 | 2.4% | 9.3% | 0.2 | 0.4 | 8% | -12% | 1% |
| COc1ccccc1NC(=O)CSc1nnc(C2CCCCC2)n1N | 0.3% | -0.5% | 0.8 | -4.4 | 6% | 9% | -14% |

Later entries:
| Compound | ClpP mod | PINK1 expr mod | Menin MLL FP FL | D2 agonist | Sfp inh | gsp agonist | gsp antag |
| --- | --- | --- | --- | --- | --- | --- | --- |
| CCn1cc(-c2cc(C(=O)O)c3ccccc3n2)cn1 | x | 0.1% | -2.7 | 3.4 | 20% | 10% | 7% |
| Cn1ccnc1-c1ccc(-c2nccn2C)cc1 | x | 0.0% | 1.2 | 7.5 | 12% | -23% | 1% |
| O=C(/C=C/c1cccc(Br)c1)N1CCN(c2cccc(C(F)(F)F)c2)CC1 | 1.1% | 16% | -2.2 | -1.2 | 2% | -17% | u |
| CN1CCN(c2ncnc3ccc(-c4cccc(NS(C)(=O)=O)c4)cc23)CC1 | x | 0.1% | -2.5 | x | 17% | x | x |
| CCC(CC)NC(=O)Nc1ccc(F)c(Cl)c1 | 0.0% | 4.3% | 4.2 | 4.4 | 0% | 9% | -9% |
| Cc1ccc(CNC(=O)C2CCC(CNc3c(N4CCC(C)CC4)c(=O)c3=O)CC2)cc1 (configuration not stated) | 1.0% | 1.3% | 4.9 | -2.7 | 4% | u | 12% |
| COc1cc(S(=O)(=O)N2CCN(Cc3ccc4c(c3)OCO4)CC2)c(C)cc1C | -3.0% | 0.0% | -6.4 | 1.4 | -3% | 15% | -28% |
